Assay outcomes: PubChem, National Center for Advancing Translational Sciences (NCATS)
VACV Venus inh: vaccinia inhibition (Venus reporter) | 330,000 compounds, 0.46% hits | AID 720580 | Vaccinia virus Venus reporter expression, fluorescence | Potency, µM (titrated, usually from 36.5 µM), for inactives: at the top dose activity change, negative = inhibition, hits mostly inhibitors; active means well fitted inhibition curve with a large enough effect; inconclusive means small, poorly fitted or top-dose-only effect; inactive means no such curve, though single readings can be large or run the other way; tested in A549 cells; also: nearly all actives have a fitted effect of over 30% in size; inactives centre near -10
VACV mCherry inh: inhibitors of vaccinia virus infection (mCherry reporter signal) | Vaccinia virus mCherry reporter infection, fluorescence; about a quarter of the inactives have no number | Potency, µM (top dose mostly 36.5 µM), inactives show top-dose activity change, negative = inhibition, most hits filed as inhibitors | 310,000 compounds, 0.63% hits; active = well fitted inhibition curve with a large enough effect; inconclusive = small, poorly fitted or top-dose-only effect; inactive = no such curve, though single readings can be large or run the other way; tested in A549 cells; also: nearly all actives have a fitted effect of over 35% in size; inactives centre near -10
* = called active by the depositor; i = inactive; ? = inconclusive; · = no result given; & = joins results of further samples; ! = repeats disagree; [ ] = another dose, or the depositor's remark. % is scaled to controls: 0 for no effect and ±100 for the full control effect; potency is read from the fitted curve at half-maximal effect.

smiles	VACV Venus inh	VACV mCherry inh
CCCCOC(=O)c1ccc(NC(c2ccc(C)cc2)P(=O)(OC)OC)cc1 (stereo not given)	-25%	?
COc1cc(F)c(C2=CC(=O)C[C@H](c3ccc4c(c3)OCO4)C2)cc1F	-13%	0%
CCOc1ccc(NS(=O)(=O)c2ccc(C(=O)NCC3CCCO3)cc2)cc1 (stereo not given)	-13%	0%
Cc1ccnc(NC(=O)Cc2ccc([N+](=O)[O-])cc2)c1	-6%	-6%
CN1CCc2c(c3ccccc3n2Cc2ccccc2)C1	13µM*!	28µM*!
CC(=O)Oc1cccc(N2C(=O)C3C4C=CC(CC4)C3C2=O)c1 (stereo not given)	-5%	i
CC(=O)c1c(Cl)nc2cccc3c2c1-c1ccccc1C3=O	4%	-25%
COCCNc1oc(COc2cccc(C)c2)nc1C#N	-11%	-21%

Full records, quoted from the list. Order of values: VACV Venus inh	VACV mCherry inh
COc1cc(F)c(C2=CC(=O)C[C@H](c3ccc4c(c3)OCO4)C2)cc1F in the list: -13%	0%
CC(=O)Oc1cccc(N2C(=O)C3C4C=CC(CC4)C3C2=O)c1 (stereo not given) in the list: -5%	i
COCCNc1oc(COc2cccc(C)c2)nc1C#N in the list: -11%	-21%
CCOc1ccc(NS(=O)(=O)c2ccc(C(=O)NCC3CCCO3)cc2)cc1 (stereo not given) in the list: -13%	0%

(listing goes on)
smiles	VACV Venus inh	VACV mCherry inh
CCN(CC(=O)Nc1c(F)cccc1F)C(=O)CCNS(=O)(=O)c1ccccc1C(F)(F)F	-5%	-14%
CCC1(CC)NC(=O)N(CC(=O)NCc2ccc3c(c2)OCO3)C1=O	-10%	-12%
Cc1cc(C)c(S(=O)(=O)c2cccc(Cl)c2)c(=O)[nH]1	-8%	i
COc1ccc(CN2CCN(Cc3c[nH]c4ccccc34)CC2)c(OC)c1	-11%	-13%
COC(=O)c1c(S(C)(=O)=O)nc(-c2ccccc2)[nH]c1=O	-10%	-12%
Cc1cc(Cl)ccc1NC(=S)N(CCCN1CCOCC1)Cc1cccs1	-11%	-27%
CCn1cnc2c1c(=O)n(Cc1cccc(Br)c1)c(=O)n2Cc1ccccc1	-15%	-30%
CSc1ncccc1C(=O)OCC(=O)c1cccs1	-15%	-11%
O=[N+]([O-])c1c(Nc2ccccc2O)cc(Cl)c2nonc12	?	-24%
CCN(CC)C(=O)c1sc2c(c1C)c(=O)n(CCc1ccccc1)c(=O)n2Cc1ccc(F)cc1Cl	-17%	-18%
CCCOc1ccc(C2C(=O)N(C3CCCCCC3)CC(=O)N2C(C)C)cc1OC (stereo not given)	-8%	-7%
CCCCCC[C@@H]([C@@H](C)O)n1cnc2c(N)ncnc21	-1%	-6%
COc1ccc(C(C)N(C)Cc2nc(N3CCN(C(=O)c4ccco4)CC3)c3ccccc3n2)cc1 (stereo not given)	0%	2%
OC(CNC1CCCC1)COc1ccc(-c2ccccc2)cc1 (stereo not given)	-18%	-13%
O=C(COC(=O)Cc1ccc2c(c1)OCCO2)Nc1ccc(S(=O)(=O)N2CCCC2)cc1	-10%	·
COc1ccc(C)cc1NC(=O)c1cc2c(s1)CCC2	-20%	-8%
O[C@H]1CN(CC2CCCCC2)[C@@H](c2ccc(Cl)cc2)C[C@@H]1n1cc(-c2ccc(F)cc2)nn1	?	-16%
COc1ccc(NC(=O)N2CCN(Cc3nc4ccc(C)cc4o3)CC2)cc1OC	-10%	-11%
CC(=O)c1ccc(NC(=O)CSc2nnc(Cn3cnc4ccccc43)o2)cc1	-13%	-11%
COCC(=O)Nc1ccc(OC)c(Cl)c1	-10%	-1%
Cc1cc(C(=O)COC(=O)c2ccc(NC(=O)CC#N)cc2)c(C)n1-c1ccc(OC(F)F)cc1	?	-8%
CCOC(=O)C1C(=O)C=C(c2ccc(C)cc2)CC1c1ccccc1 (stereo not given)	-6%	-16%
CN1C(=O)c2ccccc2Sc2ccc(NC(=O)c3ccccc3F)cc21	-16%	-21%
COc1cc(OC)c(OC)cc1/C=N/NC(=O)c1cccc(S(=O)(=O)N2CCOCC2)c1	-7%	i

Some values from the list.
Value of COc1ccc(NC(=O)N2CCN(Cc3nc4ccc(C)cc4o3)CC2)cc1OC under VACV Venus inh: -10%
Value of CC(=O)c1ccc(NC(=O)CSc2nnc(Cn3cnc4ccccc43)o2)cc1 under VACV Venus inh: -13%
Value of CN1C(=O)c2ccccc2Sc2ccc(NC(=O)c3ccccc3F)cc21 under VACV mCherry inh: -21%
Value of Cc1cc(C(=O)COC(=O)c2ccc(NC(=O)CC#N)cc2)c(C)n1-c1ccc(OC(F)F)cc1 under VACV mCherry inh: -8%
Value of CCOC(=O)C1C(=O)C=C(c2ccc(C)cc2)CC1c1ccccc1 (stereo not given) under VACV mCherry inh: -16%

(listing goes on)
smiles	VACV Venus inh	VACV mCherry inh
Cc1ccc(CNC(=O)C(=O)NCC2OCCCN2S(=O)(=O)c2ccc(F)cc2)cc1 (stereo not given)	-20%	-7%
COC(=O)c1ccccc1NC(=O)c1ccc(F)cc1	-13%	i
CC1CC(C)CN(CCCNC(=O)CN2C(=O)c3cccnc3Oc3ccc(Cl)cc32)C1 (stereo not given)	?	-9%
CSc1ccccc1OCc1cc(C(=O)NCCCn2nc(C)cc2C)no1	-22%	-16%
COc1ccc(-c2nc(C#N)c(NCCN(C)C)o2)cc1	15%	-11%
COc1ccc(CNC(=O)CN(c2cccc(OC)c2)S(C)(=O)=O)cc1	-4%	-6%
COc1ccccc1NC(=O)c1cccc(S(=O)(=O)N2CCOCC2)c1	5%	·
CCCCNC(=O)C1(C)CCN1C(=O)Cc1cccc2ccccc12 (stereo not given)	-6%	-6%
Cc1cn(CC(=O)NCCCc2ccccc2)c(=O)[nH]c1=O	-9%	-15%
O=C(CSc1cccc[n+]1[O-])N1CCCc2ccccc21	-1%	-3%
O=C(CN1CCCCC1)Nc1ccc(F)c(Cl)c1	-4%	-11%
CCCCC1=CC2=CC(=O)C(C)(OC(=O)CC)C(=O)C2=CN1C1CCCC1 (stereo not given)	-5%	i
CC[C@@]12C(=O)N(c3ccc(OC)cc3)C(=O)N1[C@H](c1ccc(Cl)cc1)[C@@H]1C(=O)N(C3CCCCC3)C(=O)[C@@H]12	?	-10%
O=C(Nc1ccc(F)cc1)Nc1ccc(Oc2ncnc3cc(Cl)ccc23)nc1	-8%	i
O=C(c1cc2c(s1)CCC2)N1CCN(c2ccccc2)CC1	-4%	i
CC1CCC(NC(=O)C2CC(=O)N(c3ccc4c(c3)OCCO4)C2)CC1 (stereo not given)	-16%	-7%
O=C(CSc1ncnc2c1cnn2CCO)Nc1cccc(C(F)(F)F)c1	-5%	-20%
Cc1cc(C(=O)C(C)OC(=O)C2=NNC(=O)CC2)c(C)n1-c1ccc(OC(F)F)cc1 (stereo not given)	-21%	·
CCCN1CCN(C(=O)CCCNC(=O)c2ccc(Cl)cc2)CC1	-15%	-10%
CCc1nn2c(=O)cc(COC(=O)c3cccc(NC(=O)CCc4ccccc4)c3)nc2s1	-20%	-6%
CC1CCN(CCCCOc2ccccc2F)CC1	-19%	i
CCOC(=O)c1cc2sccc2n1CCCN1C(=O)c2ccccc2C1=O	-4%	-5%
O=C(CC1SC(=Nc2ccc(O)cc2)NC1=O)Nc1ccccc1 (stereo not given)	-2%	i
CN1CCc2c(sc3nc(SCC(=O)N4CCOCC4)n(-c4ccc(Cl)cc4)c(=O)c23)C1	-12%[7.34 µM]	-4%[7.34 µM]
O=C(c1ccc(Cl)cc1)N1CCN(c2ncccn2)CC1	-15%	-17%
CCSC1=C(C#N)C(c2ccc(C)o2)CC(=O)N1 (stereo not given)	-7%	i
OCC[C@H]1C[C@H](O)[C@@H](O)[C@]2(CCCO2)O1	-1%	i
O=C(NN1C(=O)/C(=C/c2ccc(O)c(O)c2)SC1=S)c1ccccc1	·	163%[activator]
CCN(CC)CCCC(C)n1c(C)cc(C(=O)NS(=O)(=O)c2ccc(C)cc2)c1C (stereo not given)	-8%	-2%
COc1ccc(-c2nsc(SCC(=O)NCC3CCCO3)n2)cc1 (stereo not given)	-13%	i
Cc1nc(-c2ccccc2)sc1-c1ccc(SCC(=O)Nc2ccc(F)cc2F)nn1	-23%	i
CC1CCCC(NC(=O)CCS(=O)(=O)c2ccc3c(c2)NC(=O)CS3)C1C (stereo not given)	-6%[7.34 µM]	-9%[7.34 µM]
c1ccc(C(c2ccccc2)N2CCN(c3nc4ccccc4n4cnnc34)CC2)cc1	-17%	-7%
Cc1cccc(N=Cc2ccccc2O)c1C	11%	i
CN(C)c1nc(OCCNC(=O)Nc2ccccc2)nc(N2CCOCC2)n1	-21%	-11%
Cc1ccc2nc(-c3cccc(SC4CCCCC4)c3)c(NC3CCCCC3)n2c1	-17%&-3%	-4%&-6%
CCOc1ccc(NC(=O)CN(Cc2ccccc2)S(=O)(=O)c2ccc3nc(C)sc3c2)cc1	-12%	-10%
C/C(CC(=O)Nc1cccc(Cl)c1Cl)=N\NC(=O)c1ccccc1C	-18%	?
CC(C)CCn1nnnc1C(c1ccccc1)N1CCC(C(N)=O)CC1 (stereo not given)	-15%	-17%
Cc1nnc(NC(=O)C(C)Oc2ccc3c(C)cc(=O)oc3c2)s1 (stereo not given)	-2%	·

Remaining list, next part:
Results follow in this order: VACV Venus inh | VACV mCherry inh
- O=C(CS(=O)(=O)c1cccc2nsnc12)Nc1ccc(F)cc1F
    6% | 8%
- Cc1cc(C)cc(NC(=O)C(=O)NCC(c2cccnc2)N2CCc3ccccc3C2)c1 (stereo not given)
    -19% | -17%
- CC(C)(C)C(=O)Nc1nc(NC(=O)C(C)(C)C)nc(-c2ccccc2Cl)n1
    -6% | i
- c1ccc(-c2csc(CN3CCCCC3)n2)cc1
    -7% | i
- Cc1cc(C)c(CSc2ncnc3nc[nH]c23)c(C)c1
    11% | i
- O=C(NC1CCCCC1)c1cc2c(Cl)nc3ccccc3c2s1
    -10% | -1%
- O=C(O)c1ccc(NS(=O)(=O)/C=C/c2ccccc2)cc1
    ? | ·
- CC(C)NC(=O)C(OC(=O)c1ccccc1)C(OC(=O)c1ccccc1)C(=O)O (stereo not given)
    -12% | i
- COc1ccc(-c2nc(N)ncc2-c2csc(C)n2)c(O)c1OC
    -10% | i
- CN(Cc1ccccc1)c1ccc(N2C(=O)CCCC2=O)cc1[N+](=O)[O-]
    -2% | -3%
- CN(Cc1cccc(F)c1)C(=O)CNS(=O)(=O)c1ccc2ccccc2c1
    1% | -24%
- C[C@H]1CC[C@]2(O[C@@H](CCO)C[C@@H](O)[C@@H]2O)O1
    -12% | i
- CC(O)CNc1ccc([N+](=O)[O-])c2cccnc12 (stereo not given)
    -15% | -24%
- Cc1ccccc1S(=O)(=O)NC(=O)C1(C)CCN1C(=O)COc1ccc(Cl)cc1 (stereo not given)
    12% | 5%
- COc1ccccc1OCCn1c(=O)oc2ccc(C)cc21
    -12% | -11%

At a glance, part of the list above.
Results follow in this order: VACV Venus inh | VACV mCherry inh
- O=C(CS(=O)(=O)c1cccc2nsnc12)Nc1ccc(F)cc1F
    6% | 8%
- Cc1cc(C)cc(NC(=O)C(=O)NCC(c2cccnc2)N2CCc3ccccc3C2)c1 (stereo not given)
    -19% | -17%

(more compounds)
Results follow in this order: VACV Venus inh | VACV mCherry inh
- CCC(CC)C(=O)Nc1nnc(S(=O)(=O)N(C)c2cc(C)cc(C)c2)s1
    -3% | -8%
- Cn1c(=S)sc2ccc3ccccc3c21
    -4% | i
- CC(C)c1ccc(N2C(=O)CSC23C(=O)N(Cc2ccccc2)c2ccccc23)cc1 (stereo not given)
    -16% | -30%
- COc1cc(-c2ccc3oc(-c4ccsc4)cc(=O)c3c2)cc(OC)c1OC
    ? | -8%
- CC1(CC(=O)N/N=C/c2ccc(-c3ccc(C(=O)O)cc3)o2)OCCO1
    -8% | -13%
- C=CCn1c(SCc2nc3sc(C(=O)O)c(C)c3c(=O)[nH]2)nnc1-c1ccccc1
    -18% | -2%
- N#CC1=C2SCN(C3CCCCC3)CN2C(=O)CC1c1ccc(Cl)cc1 (stereo not given)
    5% | -2%
- CCc1ccc(C)[n+](CC(=O)c2cccs2)c1
    3% | 11%
- O=C1CCCC(O)=C1C=Nc1ccc(O)cc1
    -21% | ·
- Cc1cc(C)cc(COc2ccc3c(C)c(CC(=O)O)c(=O)oc3c2C)c1
    -8% | i
- Cc1cc(C)c(NC(=O)C(C)n2c(=O)cc(-c3ccccc3)c3c(C)nn(C)c32)c(C)c1 (stereo not given)
    -3% | -7%
- O=C(Nc1nnc(CCN2CCCCC2)s1)c1ccccc1
    1% | i
- CCC1CCCCN1S(=O)(=O)c1ccc(NC(=O)C2CCCO2)cc1 (stereo not given)
    -3% | -12%
- CCOCCn1c(-c2ccccc2)nc2ccccc21
    -5% | 1%
- O=C1C=C(c2cccc(O)c2)C[C@@H](c2ccc(F)cc2)C1
    ? | i
- CCCCCCNCc1ccc(Br)cc1
    -26% | -12%
- O=C(Cn1cc(S(=O)(=O)Cc2ccccc2Cl)c2ccccc21)Nc1cccc(C(F)(F)F)c1
    -26% | -25%
- COc1ccc(NC(=O)c2ccc(NC(=O)C(C)C)cc2)c([N+](=O)[O-])c1
    -11% | -14%
- O=C(c1cccc(Cl)c1)N1CCCC(Cn2cc(C(=O)N3CCCC3)nn2)C1 (stereo not given)
    0% | -4%
- CC(C)NC(=O)C(c1ccc(F)cc1)N(C(=O)CCC(=O)Nc1ccccn1)C1CCCC1 (stereo not given)
    -1% | 9%
- Cc1noc(C)c1C(=O)NCCc1ccc(S(N)(=O)=O)cc1
    ? | -1%
- C=CCn1c(=O)c2ccccc2n2nnc(C(=O)OCC)c12
    -10% | i
- CCOc1ccc(NC(=O)NCc2cccn2C)cc1
    -18% | i
- O=C(CCCCl)NC1=NN(c2ccccc2)C(=O)C1
    -17% | -15%
- Cc1[nH]c2ccccc2c1C(c1ccccc1)c1ccc(Cl)s1 (stereo not given)
    10% | -9%
